Screens: PubChem BioAssay, National Center for Advancing Translational Sciences (NCATS)
IDH1 R132H inh: inhibitors of human mutant IDH1 R132H. Potency, µM (highest dose often 76.6 µM), for inactives: at the top dose activity change, negative = inhibition, actives largely listed as inhibitors. IDH1-R132H enzyme, NADPH consumption, diaphorase/resazurin fluorescence. actives 0.093% (n = 390,000); also: potency is read from the fitted curve at half-maximal effect; % is scaled to controls: 0 for no effect and ±100 for the full control effect; nearly all actives have a fitted effect of over 65% in size
Target sequence (O75874 whole entry R132H, stated change not applied): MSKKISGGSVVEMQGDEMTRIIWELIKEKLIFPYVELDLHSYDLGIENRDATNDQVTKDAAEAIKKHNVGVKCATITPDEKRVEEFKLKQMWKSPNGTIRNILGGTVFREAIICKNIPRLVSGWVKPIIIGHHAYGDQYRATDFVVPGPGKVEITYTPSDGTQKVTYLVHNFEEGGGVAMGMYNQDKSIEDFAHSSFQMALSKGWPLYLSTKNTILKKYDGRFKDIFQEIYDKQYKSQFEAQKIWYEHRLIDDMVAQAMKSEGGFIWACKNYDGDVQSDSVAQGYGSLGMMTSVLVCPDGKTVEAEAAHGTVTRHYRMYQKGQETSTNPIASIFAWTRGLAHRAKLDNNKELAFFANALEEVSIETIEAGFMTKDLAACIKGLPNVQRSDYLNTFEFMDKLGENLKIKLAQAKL
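IDH1-R132H (0.5 ug/mL) preincubated 30 min with compound, then NADPH (0.016 mM) and alpha-KG (2 mM) added; 80 min at RT, pH 7.5. Remaining NADPH coupled via diaphorase/resazurin to fluorescence (540/590 nm); concentration-response curves normalized to no-enzyme control.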
Vif-APOBEC3G blk: Vif-A3G binding inhibition. Q9HC16. HeLa A3G-eYFP + Vif (tagged APOBEC3G with the HIV-1 protein that degrades it), YFP fluorescence, overnight. Potency, µM (titrated, usually from 46.1 µM), inactives show at the highest dose activity, negative = active, hits mostly inhibitors. actives 0.076% (n = 410,000);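 also: potency is read from the fitted curve at half-maximal effect; % is scaled to controls: 0 for no effect and ±100 for the full control effect; nearly all actives have a fitted effect of over 60% in size; hits raise eYFP signal because A3G escapes Vif-driven loss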
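HeLa cells stably expressing Vif and C-terminally eYFP-tagged A3G, seeded overnight at 37 deg C, then exposed to compound by pintool overnight at 37 deg C. Rise in yellow fluorescence (Ex 488/Em 500-530, Acumen) marks blocked Vif-driven A3G degradation.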
LDHA block: inhibitors of human lactate dehydrogenase A; purified LDHA, NADH/diaphorase-resazurin fluorescence; stronger effect = lower value; actives 0.15% (n = 480,000); P00338; activity change, % (values are at about 110 or 230 µM); in the data active = activity change below about -30%; inconclusive = mostly about -25% to -30%;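 also: plate controls were DMSO wells for no effect and wells without enzyme for full effect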
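LDH5 2 nM; NADH 0.06 mM, pyruvate 0.2 mM; 200 mM Tris pH 7.4, EDTA, Tween-20; 5 min RT. Detection: diaphorase 0.133 mg/mL + resazurin 37 µM, fluorescence ex540/em590 at 0 and 20 min; normalized to enzyme-free and DMSO wells.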
RGS4 inhibitor: inhibitors of human regulator of G protein signaling 4. Potency, µM (series often up to 114 µM), for inactives: at the top dose activity change, negative = inhibition, actives largely listed as inhibitors. P49798. actives 0.039% (n = 390,000). Transcreener GDP fluorescence polarization, RGS4-accelerated GTP hydrolysis; also: potency is read from the fitted curve at half-maximal effect; % is scaled to controls: 0 for no effect and ±100 for the full control effect; nearly all actives have a fitted effect of over 75% in size; some results filed as inactive show a strong effect at the top dose
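MLSMR compounds (23 nl, pin-transferred) preincubated 10 min at room temperature with a 500nM (2x) first reagent, then RGS4 at 900nM (2x) plus Transcreener GDP mix added; fluorescence polarization (620/688 nm) read before and after 90 min at 30 °C.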
Vif-APOBEC3F blk: blocks the Vif interaction with APOBEC3F | Potency, µM (titrated, usually from 46.1 µM), inactives show at the top dose activity, negative = active | HeLa A3F-eYFP + Vif (tagged APOBEC3F with the HIV-1 protein that degrades it), YFP fluorescence increase | AID 602313 | actives 0.2% (n = 390,000); also: potency is read from the fitted curve at half-maximal effect; % of control where 0% means no effect; nearly all actives have a fitted effect of over 65% in size
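Fluorescence increase (Ex 488/Em 500-530) after overnight compound treatment at 37 deg C flags inhibition of Vif-driven A3F-eYFP loss in stable HeLa A3F-eYFP/Vif cells seeded overnight beforehand.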
TrxR1 inh: inhibitors of rat thioredoxin reductase 1 | O89049 | recombinant rTrxR1, NADPH fluorescence consumption, selenite substrate | Potency, µM (highest dose often 114 µM), for inactives: at the highest dose activity change, negative = inhibition, most hits filed as inhibitors | actives 1% (n = 390,000) | AID 588453; also: potency is read from the fitted curve at half-maximal effect; % is scaled to controls: 0 for no effect and ±100 for the full control effect; nearly all actives have a fitted effect of over 65% in size
Target sequence (O89049 whole entry, looked up): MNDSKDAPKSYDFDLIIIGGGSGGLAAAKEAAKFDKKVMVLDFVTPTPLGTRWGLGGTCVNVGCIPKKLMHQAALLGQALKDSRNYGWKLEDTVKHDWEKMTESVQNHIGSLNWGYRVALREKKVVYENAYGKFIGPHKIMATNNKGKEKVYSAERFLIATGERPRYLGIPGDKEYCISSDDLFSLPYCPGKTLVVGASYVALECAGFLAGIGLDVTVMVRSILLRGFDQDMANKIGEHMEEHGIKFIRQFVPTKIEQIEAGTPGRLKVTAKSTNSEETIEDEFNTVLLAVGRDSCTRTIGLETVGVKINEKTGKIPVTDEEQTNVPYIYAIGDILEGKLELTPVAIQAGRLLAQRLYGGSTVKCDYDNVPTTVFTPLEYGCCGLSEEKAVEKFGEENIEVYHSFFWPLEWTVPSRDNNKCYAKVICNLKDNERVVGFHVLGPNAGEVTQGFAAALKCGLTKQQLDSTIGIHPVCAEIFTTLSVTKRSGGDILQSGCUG
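Rat TrxR1 (90 nM in the dispensed reagent) was pre-reduced with 400 uM NADPH for 5 min at room temperature, then incubated with compound for 15 min. After 400 uM selenite was added, NADPH fluorescence (Ex 340/Em 450 nm) was followed for 8 min.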
Glioma ERSR ind: induces the endoplasmic reticulum stress response in human glioma cells; AID 602332; U87-MG GRP78 promoter luciferase reporter, 16 h; Potency, µM, for inactives: top-dose activation, hits mostly activators; actives 0.02% (n = 420,000); also: potency is read from the fitted curve at half-maximal effect; series mostly up to about 76 µM; % of control where 0% means no effect; nearly all actives have a fitted effect of over 35% in size
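Stably transfected U87-MG glioma cells carrying a GRP78-based luciferase sensor; 16 h compound incubation. Luminescence end-point read 10 min after Bright-Glo addition at room temperature.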
TrxR1 substrate: substrates of rat thioredoxin reductase 1 | purified TrxR1 substrate turnover, NADPH consumption readout | Potency, µM (top dose mostly 114 µM), without a hit: at the top dose activity change, negative = substrate turnover | actives 0.01% (n = 390,000); also: potency is read from the fitted curve at half-maximal effect; % is scaled to controls: 0 for no effect and ±100 for the full control effect; nearly all actives have a fitted effect of over 50% in size
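Rat TrxR1, dispensed at 90 nM, was prereduced with 400 uM NADPH (final) for 5 min at ~22 deg C, then incubated with compound 15 min before 400 uM selenite. A first-read NADPH fluorescence drop versus no-compound background flagged substrates.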
The depositor's hits bear a star; ? = inconclusive; & = joins results of further samples; [ ] = remark or other dose. Unless noted, calls follow the shape of the dose curve; as a rule, active = well fitted curve in the direction sought with a large enough effect; inconclusive = small, poorly fitted or top-dose-only effect, or another doubt; inactive = no such curve, though single readings can be large; an effect the other way counts as inactive or inconclusive. A portion of the library; the hit share may differ from the screen's.

SMILES	IDH1 R132H inh	Vif-APOBEC3G blk	LDHA block	RGS4 inhibitor	Vif-APOBEC3F blk	TrxR1 inh	Glioma ERSR ind	TrxR1 substrate
Cc1ccc(NC(=O)c2cc(S(=O)(=O)N3CCOCC3)cs2)cc1	0%	6%	-7	25%	1%	17%	3%	-6%
Cc1nn(-c2ccccc2)c(C)c1C(=O)NCc1ccccc1F	3%	-4%	-8	4%	-24%	13%	-2%	2%
O=C(O)c1cccc(Nc2nc3ccccc3nc2NS(=O)(=O)c2ccccc2)c1	-2%	0%	-10&-13	-9%	7%	-4%	-5%	-7%
Cc1cnc(C(=O)OCC(=O)N2CCN(S(=O)(=O)c3ccc(Cl)cc3)CC2)cn1	7%	-3%	4	9%	-1%	-1%	-3%	-4%[57.1 µM]
N#CC(CCc1ccccc1[N+](=O)[O-])(CCc1ccccc1[N+](=O)[O-])C(N)=O	5%	-1%	-5	-7%	0%	18%[57.1 µM]	-3%	9%[57.1 µM]
COc1ccc(C(=O)COC(=O)[C@H](C)NS(=O)(=O)c2ccc(NC(C)=O)cc2)cc1OC	1%	2%	-6	6%	1%	5%	-5%	-5%
COc1ccc(CNC(=O)C(C)Sc2nc3ccccc3c(=O)n2CC2CCCO2)cc1 (stereo not given)	3%	-2%	-2	-36%	-6%	-2%	-5%	-4%
COC(=O)C1=NN(c2cccc3ccccc23)C2C(=O)N(c3ccccc3OC)C(=O)C12 (stereo not given)	4%	2%	-5	-10%	-10%	-6%[57.1 µM]	-4%	-2%[57.1 µM]
COc1ccc2cc3cc(C(=O)NCCCN4CCc5ccccc5C4)sc3nc2c1	8%	0%	-1	-24%	1%	9%	1%	51%[activator]
CC(C)(C)OC(=O)[C@H](Cc1ccccc1)NC(=O)c1nc[nH]c1C(=O)NC1CCNCC1	-12%	5%	0	-7%	-1%	13%	-3%	0%
CCN1/C(=C\C=C(C(C)=O)C(C)=O)Sc2ccccc21	5%	22µM*	-3	-7%	22µM*	-16%[57.1 µM]	1%	-16%[57.1 µM]
CC(=O)NS(=O)(=O)c1cccnc1Nc1cccc(Cl)c1	5%	0%	0	1%	-7%	8%	0%	0%
Cc1cc2c(cc1S(=O)(=O)N(CCN(C)C)Cc1ccccc1)OCC(=O)N2	-2%	8%	-1	13%	-4%	28%[57.1 µM]	-3%	6%[57.1 µM]
COc1cccc(/C=C/c2nc(C#N)c(N3CCCCC3)o2)c1	-12%	0%	7	20%	8%	36%[activator]	-1%	439%[activator]
Cc1ccc(C2=CC(c3ccc(Cl)cc3)n3nc(-c4ccc(C)cc4)nc3N2)cc1 (stereo not given)	-3%	1%	-9	-10%	1%	9%	-3%	4%
CC1=C(C(=O)Nc2cccnc2)C(c2cccc(F)c2)n2nc(SCc3ccccc3)nc2N1 (stereo not given)	-7%	0%	-3	-21%	-7%	15%	-3%	4%[2.29 µM]
O=C(Nc1nc2n(n1)C(c1ccccc1)C=C(c1ccc(Cl)cc1)N2)c1ccco1 (stereo not given)	13%	-11%	1	?	-19%	?	-5%	9%
Cc1c(C)c2ccc(OC(C)C(=O)N3C[C@H]4C[C@@H](C3)c3cccc(=O)n3C4)c(C)c2oc1=O (stereo not given in full)	-8%	0%	-2	-2%	-4%	3%	1%	45%[activator]
CCc1ccc(N2C(=O)c3sc4nnc(C)c(=O)n4c3C2=O)cc1	1%	2%	0	-9%	-2%	-11%	-2%	-5%
COc1ccc(/C=C2\CCc3c2nc2ccccc2c3C(=O)O)cc1OC	0%	0%	5	-3%	9%	-4%	-7%	12%
COc1cc(C(=O)NCc2cccc3ccccc23)ccc1OCc1ccccc1	0%	1%	-11	35%	-3%	13%	-2%	1%
CC1CCN(S(=O)(=O)c2cn(CC(=O)Nc3ccc(OC(F)(F)F)cc3)cn2)CC1	-6%	0%	-1	8%	-6%	-3%	0%	-7%
CC(=O)c1ccc(N2CCN(C(=S)Nc3ccccc3C(F)(F)F)CC2)cc1	26%	5%	-8	33%	5%	-4%[57.1 µM]	-4%	-4%
O=C(Cn1cnc2sc3c(c2c1=O)CCCC3)NCC(=O)Nc1ccc(F)cc1F	4%	-6%	-5	23%	8%	13%	4%	5%
Cc1cc2c(cc1S(=O)(=O)Nc1cccc(C(F)(F)F)c1)OCCN2C	-5%	2%	6	1%	0%	16%	-3%	-2%

No new results follow: entries from further up.
SMILES	IDH1 R132H inh	Vif-APOBEC3G blk	LDHA block	RGS4 inhibitor	Vif-APOBEC3F blk	TrxR1 inh	Glioma ERSR ind	TrxR1 substrate
COc1cc(C(=O)NCc2cccc3ccccc23)ccc1OCc1ccccc1	0%	1%	-11	35%	-3%	13%	-2%	1%
CC1CCN(S(=O)(=O)c2cn(CC(=O)Nc3ccc(OC(F)(F)F)cc3)cn2)CC1	-6%	0%	-1	8%	-6%	-3%	0%	-7%
CC(=O)c1ccc(N2CCN(C(=S)Nc3ccccc3C(F)(F)F)CC2)cc1	26%	5%	-8	33%	5%	-4%[57.1 µM]	-4%	-4%
O=C(Cn1cnc2sc3c(c2c1=O)CCCC3)NCC(=O)Nc1ccc(F)cc1F	4%	-6%	-5	23%	8%	13%	4%	5%
Cc1cc2c(cc1S(=O)(=O)Nc1cccc(C(F)(F)F)c1)OCCN2C	-5%	2%	6	1%	0%	16%	-3%	-2%

(further entries)
SMILES	IDH1 R132H inh	Vif-APOBEC3G blk	LDHA block	RGS4 inhibitor	Vif-APOBEC3F blk	TrxR1 inh	Glioma ERSR ind	TrxR1 substrate
COc1ccccc1N1CCN(C(=O)Nc2cn(CC(C)C)c(=O)c3ccccc23)CC1	-6%	3%	1	-16%	4%	24%	-3%	22%
CC1CN=C(N(Cc2ccccc2)C(=O)Nc2ccccc2)S1 (stereo not given)	1%	-5%	-1	6%	-1%	1%	3%	2%
O=C(/C=C/NNC(=O)c1ccccc1O)c1ccccc1	2%	-1%	-1	10%	-2%	0%	8%	1%
COc1ccc(C2/C(=C(/O)c3ccccc3)C(=O)C(=O)N2C)cc1OC (stereo not given)	4%	-1%	-3	1%	5%	-5%	3%	-6%
COc1cccc(/C=C2/Sc3ccc(C(=O)NCCN4CCCCCC4)cc3NC2=O)c1	6%	0%	1	?	?	-9%	-14%	3%
Cc1cc(C)c(S(=O)(=O)Nc2cccc(S(=O)(=O)N3CCOCC3)c2)c(C)c1	12%	-1%	-1	-12%	-5%	15%	-5%	6%
Cc1cc2nc(/C(C#N)=C\c3ccc(-c4ccccc4C(=O)O)o3)[nH]c2cc1C	10%	8%	0	-43%	-319%	-27%	3%	-20%
CC(=O)Cc1nsc(NC(=O)c2ccc(-c3ccccc3Cl)o2)n1	15%	?	-6	2%	7%	?	2%	0%
C1=C(c2ccccc2)Nc2ccccc2N=C1c1ccccc1	3%	2%	1	-22%	-19%	-1%	3%	-3%
CC(=O)C1=C(O)C(=O)N(CCC(=O)O)C1c1cccc(F)c1 (stereo not given)	3%	-1%	-14	3%	-1%	5%	-3%	-2%
Cc1nn(C)cc1S(=O)(=O)NCc1ccc2c(c1)OCO2	2%	1%	-3	8%	2%	-2%	-4%	-4%
CC(C)(C)C1N=C(c2ccc3ccccc3c2)OC1=O (stereo not given)	11%	-1%	-5	5%	3%	16%	2%	8%
Cc1ccc(NC(=O)c2cc(S(=O)(=O)N3CCCCC3)cs2)cc1	-2%	0%	-9	10%	-8%	5%	-2%	1%
COc1ccc(CNC(=O)c2cc3c(-c4ccccc4F)nn(C)c3s2)c(OC)c1	0%	1%	-4	-14%	-1%	12%	-1%	2%
Cc1ccc(NC(=O)C(CC(C)C)N2Cc3ccccc3C2=O)cc1F (stereo not given)	-8%	-5%	-10	-8%	15%	6%	-2%	-2%
O=C(O)c1nn2c(C(F)(F)F)cc(-c3cccs3)nc2c1Cl	8%	0%	3	-21%	-8%	-18%	3%	-13%
CCOC(=O)c1cc(N2CCCCC2)nc2ccccc12	4%	-1%	-2	-18%	11%	-10%[11.4 µM]	-3%	-2%[11.4 µM]
COc1ccc(C(C#N)Nc2ccccc2OC)cc1 (stereo not given)	7%	1%	15	-39%	-5%	-3%	-3%	-4%
COc1ccc(CNC(=O)Nc2cn(CC(C)C)c(=O)c3ccccc23)cc1	-7%	-2%	7	-26%	-7%	-1%	-4%	13%
O=C1CCCC(=O)C1=C1SCCCS1	2%	1%	8	-31%	?	-18%	2%	-6%
CN(C(=O)c1cc2c(=O)n3ccccc3nc2n1C)c1ccccc1	5%	-11%	3	-8%	-1%	?	-2%	328%[activator]
CC(=O)c1ccc(N2CCN(C(=O)Nc3cn(CC(C)C)c(=O)c4ccccc34)CC2)cc1	-7%	-4%	3	-16%	3%	8%	-2%	-5%
Cc1cc(C(=O)NCc2ccccc2Cl)c2c(C)nn(-c3cccc(F)c3)c2n1	0%	-2%	-6	-4%	6%	92%[activator]	-2%	88%[activator]
COc1ccc(Cl)cc1NC(=O)C(C)OC(=O)Cn1cc(C(F)(F)F)ccc1=O (stereo not given)	0%	2%	-2	0%	5%	14%	-3%	7%
CC1CCN(S(=O)(=O)c2cn(CC(=O)Nc3cccc(C#N)c3)cn2)CC1	5%	-1%	1	-9%	-1%	14%	-2%	7%
N#Cc1c(N)n(CCNC(=O)c2ccccc2)c2nc3ccccc3nc12	1%	?	-1	-2%	?	32%	-1%	210%[activator]
O=C(O)c1c2c(nc3ccccc13)/C(=C/c1cccc([N+](=O)[O-])c1)CCC2	-29%	0%	4	-39%	7%	9%[57.1 µM]	3%	-24%[57.1 µM]
CC1CCCC(NC(=O)CSc2nnc(C(F)(F)F)n2C)C1C (stereo not given)	2%	7%	0	-7%	-9%	1%	1%	-1%
